High-throughput results (PubChem BioAssay)
CapD inh: CapD enzyme inhibition. AID 492967. z-score (no concentration beside the values). 0.23% of 140,000 active. purified CapD enzyme, fluorescence intensity read-out; hits give low values; some hits fall short of the stated cut;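 active = z-score under -4 in either of two replicates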;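 note: stock transfer was 100 nL into about 40 µL; score is relative to mean and spread of the plate; one replicate is shown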
AID504770: E. coli YBA685 growth inhibition, screen for V. cholerae RctB inhibitors. E. coli YBA685 rctB-dependent plasmid, OD600 growth, 3 h; hits give low values. z-score (no concentration beside the values). 0.27% of 130,000 active;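 active = z-score under -2 on both plates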;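 note: wells of about 30 µL received 100 nL stock; score is relative to mean and SD of the test wells; the first replicate is given; strong numbers were not always called active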
* marks the source's active call; other numbers are inactive results; i = inactive; nt = not tested or not shown. Only part of the results is shown, so the mix of outcomes need not match the whole.

SMILES	CapD inh	AID504770
CC(C)(C)OC(=O)N1CC=C2C(C#N)=C(N)C(C#N)(C#N)C(c3cccc(Cl)c3)C2C1 (centres undefined)	1.2	nt
CNC(=S)N(CCO)Cc1cc2cc3c(cc2[nH]c1=O)OCCO3	nt	-0.1
COP1(=S)/C(=C2/N(C)c3ccccc3C2(C)C)C=NN1C (centres undefined)	nt	0.65
CCOC(=O)C(C(=O)C(F)(F)F)C(NC(N)=S)c1ccsc1 (centres undefined)	-0.27	nt
CN(C)/C=C/C(=O)c1ccc([N+](=O)[O-])c(CS(=O)(=O)c2ccccc2)c1	-1.14	nt
O=C1/C(=C/c2ccccc2)Nc2ccccc21	nt	2.25
O=C(NCCONC(=O)c1ccc(Cl)cc1)c1ccc(Cl)cc1	-0.31	nt
COc1ccc(C(=O)OCC(N)=O)cc1OC	nt	-0.75
CC1CC(C)CN(S(=O)(=O)c2ccc(/C(O)=C(\C#N)c3nc4ccccc4s3)cc2)C1 (centres undefined)	nt	-0.05
CCCN1c2ccccc2C2=C(SC(C(=O)OC)=C(C(=O)OC)C23SC(C(=O)OC)=C(C(=O)OC)S3)C1(C)C	-0.42	nt
CC1=C(C(=O)Nc2cccc(F)c2)C(c2ccc(N(C)C)cc2)C2=C(CC(c3ccccc3)CC2=O)N1 (centres undefined)	2.2	nt
O=C1CC(c2ccc(Cl)c(Cl)c2)c2cc(Br)c3ccccc3c2N1 (centres undefined)	-0.14	nt
CCOC(=O)/C(C)=N/Nc1ccc(F)cc1	-2.93	0.25
O=C1C2C3C=CC(O3)C2C(=O)N1c1ccc(Br)cc1 (centres undefined)	-0.145	nt
COCCOC(=O)C1=C(C)NC2=C(C(=O)CC(c3ccc(Cl)cc3)C2)C1c1ccc(N(C)C)cc1 (centres undefined)	0.655	nt
CCN1CCCC1CNS(=O)(=O)c1ccc(F)cc1F (centres undefined)	nt	0.55
Cc1ccc(OCC(=O)n2c(SCc3ccc(F)cc3)nc3ccccc32)cc1	-1.07	-0.7
C=CCn1c(SCC(=O)NC(=O)C2COc3ccccc3O2)nnc1-c1ccccc1 (centres undefined)	nt	0.1
CN(C)c1ccc(/C=C2\CCCC3C2=NN(C(=O)c2ccco2)C3c2ccc(N(C)C)cc2)cc1 (centres undefined)	-0.205	-0.15
O=C(Nc1cccc(-c2ccc(N3CCCC3)nn2)c1)c1ccccc1	nt	-1.35
CCCN1C(=O)/C(=C2\SC(=S)NC2=O)c2cc(Br)ccc21	0.295	0.7
Cc1ccc(C(=O)N2c3ccccc3N3C(c4c(C)cc(C)cc4C)=NON23)cc1	0.78	nt
Cc1ccc2nc(COC(=O)C3CCN(c4ccc(C(F)(F)F)cn4)CC3)cc(=O)n2c1	nt	0.4
O=C(O)/C=C1\SC(=O)N(Cc2ccccc2)C1=O	nt	-1.2
c1ccc(-c2nc(Cc3nc4ccccc4[nH]3)no2)cc1	nt	0.1
(further entries)
SMILES	CapD inh	AID504770
COC(=O)NCc1ccccc1	-0.56	2.3
CN(C)c1ccc(Nc2nc(-c3ccccc3)c(C(=O)c3ccc(F)cc3)s2)cc1	-0.9	-0.2
CN(C1CCN(Cc2cccc(Cl)c2)C1)S(=O)(=O)c1ccccc1OC(F)(F)F (centres undefined)	0.92	nt
Cc1cc(-c2ccc(C3C4=C(CC(C)(C)CC4=O)OC4=C3C(=O)CC(C)(C)C4)o2)ccc1[N+](=O)[O-]	-0.535	nt
COC(=O)Cn1c(Cc2ccccc2)nc2ccccc21	0	-1.35
C/C1=C\C(O)C(C(C)C)C(O)C/C(C)=C/CC1 (centres undefined)	-0.215	-0.35
COc1cccc(OC)c1C(=O)Nc1ccc(Oc2ccc(Br)c3ccccc23)c(Cl)c1	0.48	nt
Cc1cccc(OCc2nn[nH]n2)c1C	nt	-0.65
Cc1c(C(=O)N2CCN(c3ccccc3)CC2)sc2nc[nH]c(=O)c12	0.3	-1
O=S(=O)(c1ccc(Cl)cc1)N(Cc1ccco1)CC(O)Cn1c2ccccc2c2ccccc21 (centres undefined)	nt	-0.65
COc1ccc(NC(=O)CC2SC(=Nc3ccccc3)N(c3ccccc3)C2=O)cc1 (centres undefined)	54.6	0.25
CCCc1[nH]nc2c1C(c1cc(OCC)c(OC(=O)c3cccs3)c([N+](=O)[O-])c1)C(C#N)=C(N)O2 (centres undefined)	-0.675	nt
CC(=O)Nc1nc(C2COc3ccccc3O2)cs1 (centres undefined)	-0.68	-1.25
O=C(Nc1ccc(-c2ccccc2)cc1)c1ccc(Br)o1	0.29	-1.05
Cc1cc(SCC(=O)NC2CCS(=O)(=O)C2)nc2ccccc12 (centres undefined)	nt	0.1
COc1ccccc1C(=O)Nc1nnc(-c2ccccc2Cl)s1	i	-0.2
N#Cc1c(-c2cccs2)cc(-c2ccc3ccccc3c2)nc1SCC(N)=O	0.715	nt
COC(=O)c1ccc(S(=O)(=O)NC(C)(C)C)n1C	0.3	-1.05
S=C1NC(c2ccccc2)=CC(c2ccsc2)S1 (centres undefined)	-0.3	0.6
CCc1nc2ccccc2c2c1C(=O)N(NC(=O)c1cc(C(C)(C)C)[nH]n1)C2=O	-1.18	nt
CCOc1ccc(-n2c(=S)sc3c(=O)[nH]c(SCc4cc(=O)n5cc(Cl)ccc5n4)nc32)cc1	0.585	nt
CN(C)c1ccc2cccc(O)c2n1	55.1	-0.4
Cc1ccc(S(=O)(=O)Oc2ccc(Cl)cc2/C=c2\sc3nc4ccccc4n3c2=O)cc1	-0.385	nt
CC(C)C(=O)Nc1ccc(C(=O)O)cc1	0.75	0.9
CSc1sc(C(=O)NNC(=O)Cc2nc(-c3ccc(Cl)cc3)sc2C)c2c1C1(CCC2)SCCS1	-0.065	nt
(list continues)
SMILES	CapD inh	AID504770
CCCC(=O)N1c2c(C)cccc2C(Nc2ccccc2C)CC1C (centres undefined)	-0.4	nt
Cc1cc(NC(=O)c2cc3nc(-c4ccc(Br)cc4)cc(C(F)(F)F)n3n2)no1	0.305	nt
Cc1ccc(N2C(=O)C3C4C=CC(O4)C3C2=O)cc1 (centres undefined)	-0.29	0.95
O=C1CC(c2ccc(F)cc2)CC(O)=C1C=NCCN1CCNCC1 (centres undefined)	0.205	0.3
NC(=O)c1ccccc1OCc1nnc(-c2ccccc2Br)o1	nt	-0.15
CCCNc1ccccc1OCC	0.38	0
COc1ccc(S(=O)(=O)N2CCN(C(=O)c3ccccc3)CC2)cc1	-1.1	nt
CCOC(=O)c1c(CN2CCOCC2)[nH]c(C(=O)OCc2ccccc2)c1C	-0.335	-0.7
CCOC(=O)C1=C(C)N=c2s/c(=C\c3ccc(OC)cc3OC)c(=O)n2C1c1ccc2c(c1)OCO2 (centres undefined)	-0.345	nt
CC(=O)N[C@@H](C)C(=O)NCc1ccc2c(c1)OCO2	nt	0.8
Cc1c(Cl)cccc1NN	0.405	-0.3
CCN(c1ccccc1)S(=O)(=O)c1ccc2[nH]cc(C(=O)NCCOC)c(=O)c2c1	4.33	-0.8
O=C(Cn1nc(-c2ccccc2)c2ccccc2c1=O)NCCO	0.25	-0.6
CCOc1ccc(-n2nc3cc(C)c(NC(=O)c4ccc(Br)o4)cc3n2)cc1	4.78	0.3
CCOc1ccc(CCNC(=O)Nc2ccc(C)c(C)c2)cc1OCC	1.52	0.15
Cc1ccc(C(C)(C)C)cc1S(N)(=O)=O	-0.35	-1.85
CCOC(=O)c1nnn(-c2nc(N3CCCC3)nc(N3CCCC3)n2)c1-c1ccccc1	-0.49	-0.95
CN(Cc1cccs1)C(=S)SCc1cccs1	0.255	-0.2
Cc1cc(C)c2nc(NC(=O)c3ccc(C#N)cc3)sc2c1	1.27	0.25
CCOC(=O)CSc1nc2ccc(Br)cc2c(=O)n1C	0.015	-1.2
NCCCc1ccccc1Cl	nt	-1.75
CCc1ccc2occ(CC(=O)Nc3ccc(Cl)cc3)c2c1	-1.28	-0.25
COc1cc(/C=N/O)cc(OC)c1OC	0.485	0.35
Cc1cc(C(F)F)n2nc(C(=O)Nc3ccc(C)c(C)c3)nc2n1	nt	0.75
CC1CCC(NC(=O)Cn2ncn3c(cc4sccc43)c2=O)CC1 (centres undefined)	-0.155	-0.4
Following part:
SMILES	CapD inh	AID504770
O=C(O)/C(=C\c1cccs1)c1ccccc1	-0.675	-0.25
CC1CCN(C(=O)CN2N=C(c3ccccc3)CCC2=O)CC1	1.35	-0.6
CN1C2C=C3C(C#N)=C(N)C(C#N)(C#N)[C@@H](c4ccc(F)cc4)[C@@H]3C1CC2 (some centres undefined)	2.88	nt
CC(C)(C)c1ccc(C2Oc3ccc(Br)cc3C3CC(c4ccccc4)=NN32)cc1 (centres undefined)	0.065	nt
COc1cc([N+](=O)[O-])cc2c1OC1(C=Cc3c(ccc4ccccc34)O1)C(C)=C2 (centres undefined)	0.505	nt
CCCCN(C)S(=O)(=O)c1ccc2c(c1)OCCN2C(C)=O	0.04	0.45
CC(C)CC(=O)NC1(C(F)(F)F)NC(=O)N(CC(C)C)C1=O (centres undefined)	0.585	0.2
CN(C)C1N(C(=O)c2cccc(Br)c2)N=C2c3ccccc3S(=O)(=O)N21 (centres undefined)	-0.255	nt
C=C(C)COc1ccc2c3c(c(=O)oc2c1C)CCCC3	6.01	nt
CC(C)NC(=O)C1COc2ccccc2O1 (centres undefined)	0.045	-0.55
NC(=O)CSc1nnc(Cc2cccs2)n1C1CCCCC1	nt	0.3
CCOC(=O)c1cc(-c2ccc(F)cc2)n(CC(=O)NCCN(C)C)c1C	nt	-0.3
Cc1ccc(CNS(=O)(=O)c2ccc3oc(=O)c4ncn(C)c4c3c2)cc1	-0.635	-1.8
COc1ccc(S(=O)(=O)n2c(SCC(=O)Nc3ccc(C(C)C)cc3)nc3ccc(OC)cc32)cc1	-0.21	nt
O=C(Oc1ccc(N(Cc2ccco2)C2=NS(=O)(=O)c3ccccc32)cc1)c1ccco1	0.15	-0.2
COc1cccc(C2C(C(=O)Nc3ccccc3)=C(C)N=c3s/c(=C/c4c[nH]c5ccccc45)c(=O)n32)c1 (centres undefined)	-0.765	nt
CC(=O)OC(C(=O)NCc1ccco1)c1ccncc1 (centres undefined)	nt	0.4
Cc1ccc(NC(=S)Nc2cccnc2)c(S(=O)(=O)N2CCOCC2)c1	nt	-0.1
O=C(/C=C/c1ccccc1)Nc1cc2c(ccc3ccccc32)oc1=O	-1.11	0.25
O=C(CCCCCNC(=O)OCc1ccccc1)NCCc1cnc[nH]1	0.215	nt
CC(Sc1nnc(COc2ccccc2)n1C)C(=O)Nc1nccs1 (centres undefined)	nt	-0.3
CCCCSc1nnc2c(n1)OC(C1CC=C(C)CC1)Nc1ccccc1-2 (centres undefined)	0.94	nt
CC(=Nc1ccc(Cl)cc1)c1ccsc1	-1.01	-0.2
O=C1CCCc2cc(S(=O)(=O)N3CCCC3=O)ccc2N1	-0.195	0.5
O=C(CSc1cc(C(F)(F)F)c2cc3c(cc2n1)OCO3)NCCN1CCOCC1	nt	0.45
Other compounds:
SMILES	CapD inh	AID504770
CCOc1ccc([C@@H]2[C@@H](C(=O)c3ccccc3)N3c4ccc5ccccc5c4C=C[C@@H]3C2(C#N)C#N)cc1	10.5	nt
CC(C)(C)P(=NC(=S)NCc1ccccc1)(N1CCOCC1)N1CCOCC1	nt	-0.3
O=C(Cc1cccc(C(F)(F)F)c1)Nc1ccccc1	-0.685	-0.85
O=C(O)C1CCN(C(=O)CSc2ncc(C(F)(F)F)cc2Cl)CC1	nt	0.05
CCOc1ccc(C2C(C(=O)c3ccccc3)N3c4ccccc4C=CC3C2(C#N)C#N)cc1 (centres undefined)	-0.015	nt
O=S(=O)(c1cccc2nonc12)N1CCN(C(c2ccccc2)c2ccccc2)CC1	-0.315	nt
Cc1nc(CSc2ccc(Cl)cc2)cc(OCc2cccc(Cl)c2)n1	-0.19	nt
Cc1ccc(N/C=C/C(=O)c2ccc(OCc3c(F)cccc3Cl)cc2)cc1	0.29	nt
Cc1ccc(NC(=O)Cn2cc(/C=C3/NC(=O)NC3=O)c3ccccc32)cc1	-0.48	-0.1
COc1ccc(CN2C(=O)CN(C)C2=S)cc1	nt	-0.4
O=C(COn1nnc2ccc(Cl)cc21)NCc1ccco1	nt	-0.1
c1coc(-c2cc(-c3nc4ccccc4s3)c3ccccc3n2)c1	nt	0.3
CC(C)(C)S(=O)(=O)/C(C#N)=C/N1CCOCC1	0.13	nt
CCOc1cc(OCC)c2c(-c3ccccc3)cc(=O)oc2c1	1.16	0.65
COc1cc(C2CC(=O)Nc3c2ccc2ccccc32)c(OC)cc1Br (centres undefined)	0.675	nt

Part of the list above in order of number of heavy atoms, falling:
SMILES	CapD inh	AID504770
CCOc1ccc([C@@H]2[C@@H](C(=O)c3ccccc3)N3c4ccc5ccccc5c4C=C[C@@H]3C2(C#N)C#N)cc1	10.5	nt
CCOc1ccc(C2C(C(=O)c3ccccc3)N3c4ccccc4C=CC3C2(C#N)C#N)cc1 (centres undefined)	-0.015	nt
O=S(=O)(c1cccc2nonc12)N1CCN(C(c2ccccc2)c2ccccc2)CC1	-0.315	nt
O=C(CSc1cc(C(F)(F)F)c2cc3c(cc2n1)OCO3)NCCN1CCOCC1	nt	0.45
Cc1ccc(N/C=C/C(=O)c2ccc(OCc3c(F)cccc3Cl)cc2)cc1	0.29	nt
COc1cc(C2CC(=O)Nc3c2ccc2ccccc32)c(OC)cc1Br (centres undefined)	0.675	nt
Cc1nc(CSc2ccc(Cl)cc2)cc(OCc2cccc(Cl)c2)n1	-0.19	nt
c1coc(-c2cc(-c3nc4ccccc4s3)c3ccccc3n2)c1	nt	0.3
CCOc1cc(OCC)c2c(-c3ccccc3)cc(=O)oc2c1	1.16	0.65
O=C(COn1nnc2ccc(Cl)cc21)NCc1ccco1	nt	-0.1
O=C(Cc1cccc(C(F)(F)F)c1)Nc1ccccc1	-0.685	-0.85
COc1ccc(CN2C(=O)CN(C)C2=S)cc1	nt	-0.4
CC(=Nc1ccc(Cl)cc1)c1ccsc1	-1.01	-0.2

3 consecutive compounds from above, for reference:
SMILES	CapD inh	AID504770
CCOc1ccc([C@@H]2[C@@H](C(=O)c3ccccc3)N3c4ccc5ccccc5c4C=C[C@@H]3C2(C#N)C#N)cc1	10.5	nt
CC(C)(C)P(=NC(=S)NCc1ccccc1)(N1CCOCC1)N1CCOCC1	nt	-0.3
O=C(Cc1cccc(C(F)(F)F)c1)Nc1ccccc1	-0.685	-0.85
